High-throughput results (PubChem)
MT1-MMP act inh = inhibitors of human MT1-MMP activation; hit rate 0.061% among 360,000; P50281; GFP/RFP ratio change, % at 20 µM; HT1080 RFP-PRO-GFP cells, GFP/RFP ratio fluorescence, overnight; percent of plate control window, DMSO zero;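 active = GFP/RFP ratio change of at least 30% with cell ATP level not reduced by more than half and red fluorescence within 50% of control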; note: strong numbers were not always called active
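Compound: 20 µM single dose, 1% DMSO / System: HT1080 RFP-PRO-GFP cells / Controls: DMSO and RFP-L50D-GFP cell wells / Read-out basis: GFP/RFP fluorescence ratio / Schedule: overnight compound exposure at 37 °C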
HIV Env fusion = HIV envelope-mediated fusion inhibition. AID 651610. inhibition, % at 12.3 µM. HeLa-JRFL Env/CEM21 cell fusion, luciferase. hit rate 1.1% among 360,000;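 active = mean replicate inhibition score of at least 50 and every replicate individually at or above 50; inconclusive = only one of the two criteria met; inactive = mean below 50 and not all replicates reaching 50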;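 note: 0% = plate neutral controls and 100% = maraviroc near 300 nM; one replicate is shown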
Yeast UUG start = yeast start codon fidelity modulation | hit rate 0.13% among 350,000 | AID 602363 | S. cerevisiae UUG-firefly luciferase reporter, luminescence/redox ratio | activity score, % at 18.7 µM;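 active = replicate mean at a twofold rise or more, about +100% in these data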;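 note: firefly luciferase made from a UUG start codon reports start codon fidelity; reporter light over untreated wells divided by growth signal over untreated wells; some hits fall short of that in this replicate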
PABP FP inh = PABP-poly(A) binding inhibition; P11940; PABP-poly(A) RNA binding, fluorescence polarization; inhibition, % at 35 µM; hit rate 1% among 290,000; AID 2014;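 active = 50% or more with normal probe brightness, or confirmed in later tests; inconclusive = above 50% with abnormal brightness, or retests that disagree; inactive = below 50% or failed in later tests; about a fifth of its hits are not listed in these tables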;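 note: calls also rest on retests at 20 µM and on dose response follow-up; controls were probe without protein and protein plus probe with vehicle; some compounds called inactive have numbers as strong as hits; many hits fall short of the cut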
Target sequence (P11940 whole entry, looked up): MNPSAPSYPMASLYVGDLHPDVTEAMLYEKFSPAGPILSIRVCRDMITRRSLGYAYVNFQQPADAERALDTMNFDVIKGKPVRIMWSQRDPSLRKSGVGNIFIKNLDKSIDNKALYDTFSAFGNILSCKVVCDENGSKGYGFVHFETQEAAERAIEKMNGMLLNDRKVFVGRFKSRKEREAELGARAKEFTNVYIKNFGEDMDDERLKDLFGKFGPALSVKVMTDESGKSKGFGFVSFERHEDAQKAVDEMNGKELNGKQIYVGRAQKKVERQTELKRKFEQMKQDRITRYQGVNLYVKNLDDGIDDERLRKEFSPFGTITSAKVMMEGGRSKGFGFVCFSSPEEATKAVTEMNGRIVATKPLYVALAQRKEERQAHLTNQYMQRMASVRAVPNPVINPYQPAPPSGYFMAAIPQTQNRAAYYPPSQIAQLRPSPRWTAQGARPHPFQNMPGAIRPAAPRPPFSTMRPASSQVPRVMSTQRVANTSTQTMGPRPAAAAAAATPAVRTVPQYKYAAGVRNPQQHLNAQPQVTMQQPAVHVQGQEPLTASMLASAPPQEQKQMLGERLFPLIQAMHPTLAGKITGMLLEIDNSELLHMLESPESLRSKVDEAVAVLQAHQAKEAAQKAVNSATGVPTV
CSC inhib = cancer stem cell inhibition | cancer stem cell-like cells viability, luminescence | inhibition, % at 7.5 µM | hit rate 1.1% among 300,000 | AID 2717;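 active = mean at 75% or more and at least half the replicates too; inconclusive = mean and replicates disagree; tested in HMLE shEcad cells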;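 note: 0% = median of negative and 100% = median of positive control wells; the first replicate is given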
Rce1 inh = blocks yeast Ras-converting enzyme. Q03530. yeast membranes, quenched prenylated peptide cleavage fluorescence. calls only. hit rate 0.27% among 290,000. AID 2563;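 active = fall in fluorescence gain of 50% or more versus controls, with final raw signal at or below 3038400; inconclusive = same 50% fall but final raw signal above 3038400; inactive = fall in fluorescence gain under 50%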;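 note: plate controls were neutral control wells for no effect and wells lacking membranes for full effect; tested at 10 µM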
Target sequence (Q03530 whole entry, looked up): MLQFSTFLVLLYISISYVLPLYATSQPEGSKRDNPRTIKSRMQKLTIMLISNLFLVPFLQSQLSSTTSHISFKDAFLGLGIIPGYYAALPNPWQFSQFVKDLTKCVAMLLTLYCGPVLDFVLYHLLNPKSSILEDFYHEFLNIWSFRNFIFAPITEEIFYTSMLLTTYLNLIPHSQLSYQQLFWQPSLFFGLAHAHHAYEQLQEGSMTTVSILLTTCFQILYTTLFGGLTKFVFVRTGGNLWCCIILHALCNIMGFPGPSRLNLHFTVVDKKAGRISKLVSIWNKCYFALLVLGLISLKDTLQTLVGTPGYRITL
eIF4H FP inh = inhibitors of RNA binding by human eIF4H; inhibition, % at 35 µM; AID 2012; eIF4H fluorescence polarization binding assay; hit rate 0.94% among 290,000;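 active = 50% or more with normal probe brightness, or confirmed in later tests; inconclusive = above 50% with abnormal brightness, or retests that disagree; inactive = below 50% or failed in later tests; about a fifth of its hits are not listed in these tables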;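 note: calls also rest on retests at 20 µM and on dose response follow-up; 0% = protein and probe with vehicle and 100% = probe without protein; strong numbers were not always called active; many hits fall short of the cut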
MT1-MMP act inh RFP = further read-out of MT1-MMP act inh, marked with its call; RFP signal change, %; measured here: RFP expression control read;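 0 = vehicle wells; hits needed this value within 50% of zero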
Active calls of the source: *; i = inactive; ? = inconclusive; / = no result given; & = joins results of further samples. This is a random part of the collection; about 3% have a hit in one of these screens.

SMILES | MT1-MMP act inh | MT1-MMP act inh RFP | HIV Env fusion | Yeast UUG start | PABP FP inh | CSC inhib | Rce1 inh | eIF4H FP inh
O=C1C(Cc2ccccc2)Nc2ncnc(N3CCOCC3)c2N1Cc1ccc(Cl)cc1 (stereo unspecified) | -2.2&4.6 | 2.0&2.5 | -16.6&-9.8 | 13.2&-3.1 | / | -10.9 | i | /
COc1cc(CNC(=O)Nc2nc(C(N)Cc3ccc(C(F)(F)F)cc3)cs2)cc(OC)c1OC (stereo unspecified) | -6.7 | -5.9 | 39.1 | -5.6 | / | / | / | /
COc1cnc(-c2ccccn2)nc1Sc1ccccc1Cl | 7.7 | 1.6 | -40.8 | -40.4 | -8.8 | 4.2 | i | 1.3
O=C(c1ccc2ccccc2c1)c1c[nH]cc1-c1ccccc1 | 2.6 | -4.6 | -77.2 | -11.5 | 2.0 | 12.1 | i | 2.9
CCOC(=O)c1c(NC(=O)C[n+]2ccc(Cc3ccccc3)cc2)sc(C)c1C | -15.1 | -16.9 | 3.2 | / | 3.5 | -8.1 | i | 8.7
CC1CCCCN1C(=O)CSc1nnc(-c2ccco2)n1C (stereo unspecified) | 0.8 | 4.8 | -6.8 | -8.2 | 11.7 | -6.2 | i | 3.5
CC(=O)N1CC=C2C(C#N)=C(N)C(C#N)(C#N)C(C)C2C1 (stereo unspecified) | -19.4 | -6.5 | 1.3 | -25.9 | 8.0 | -17.5 | i | 12.2
CCOC(=O)C1(Cc2ccc(Cl)cc2)CCN(CCCn2cccn2)CC1 | 2.0 | -1.5 | -6.3 | -9.6 | -1.5 | 0.4 | i | -3.9
CC(C)C(=O)Nc1cccc(-c2cn3ccsc3n2)c1 | -4.6 | 5.0 | / | / | -1.0 | -4.0 | i | 4.0
CCCN1CCN(C(=O)CCCNC(=O)Cn2cnc3sc(C)c(C)c3c2=O)CC1 | 1.0 | 3.8 | / | -16.2 | -5.5 | -8.0 | i | -11.3
OC1CCCN(Cc2c3ccccc3cc3ccccc23)C1 (stereo unspecified) | 0.9 | 5.7 | -124.7 | -11.4 | 7.9 | 10.8 | i | 0.1
CC(C(=O)NCc1cccc(Cl)c1)N1C(=O)c2ccccc2C1=O (stereo unspecified) | -2.0 | 2.0 | -20.4 | -5.8 | 2.5 | -7.2 | i | -2.3
COC(=O)CN(c1ccc(C)c(Cl)c1)S(C)(=O)=O | -0.2 | 1.7 | -8.1 | -15.4 | 6.0 | -9.1 | i | -8.6
CC(C)(C)C1CCc2onc(C(=O)Nc3ccc(F)cc3F)c2C1 (stereo unspecified) | 2.4 | -4.4 | 31.4 | -8.4 | -7.3 | 3.9 | i | -9.9
CCCOc1ccc(C(CC(=O)O)NC(=O)C23CC4CC(CC(C4)C2)C3)cc1 (stereo unspecified) | 2.4 | 2.1 | -15.8 | / | -1.3 | 17.1 | i | -3.5
CC(C)(C)c1ccc(C(=O)NNc2cc(Cl)cc(Cl)c2)cc1 | 0.6 | -1.7 | 1.2 | / | -4.0 | -5.2 | i | -6.0
Cc1ccc2c(c1)Sc1ccccc1CC2=O | -0.9 | -1.6 | / | -9.3 | -10.7 | 3.2 | i | -5.6
O=C(CCNC(=O)c1ccc([N+](=O)[O-])cc1)NCCCN1CCCC1=O | -0.6 | 6.5 | 2.0 | -8.0 | 5.2 | 6.7 | i | -1.7
Cc1cccc(NC(=O)CN(C2=NC3CS(=O)(=O)CC3S2)c2ccccc2F)c1 (stereo unspecified) | 0.2 | 4.9 | 4.3 | -6.0 | -16.7 | 0.6 | i | -8.2
O=C(c1cnn2ccccc12)N1CCc2ccccc21 | -1.1 | 3.2 | -122.1 | -3.3 | 10.1 | -3.0 | i | -4.3
CCCN1CCN(CCCNC(=O)c2ccc3c(Cl)c4c(nc3c2)CCCC4)CC1 | 5.7 | 1.1 | 8.9 | 13.6 | -0.7 | 11.7 | i | -6.0
O=C(NCCN1CCN(c2cccc(Cl)c2)CC1)c1ccc(CSc2nc3ccncc3[nH]2)cc1 | 4.5 | -13.2 | 32.4 | -16.0 | -2.6 | 51.3 | i | -1.4
O=C(O)c1cccc2c1C(=O)N(C1CCCCC1)C2 | -0.1 | 5.3 | 14.0 | -24.8 | 2.9 | -6.3 | i | 2.5
COc1ccc(NC(=O)CCNS(=O)(=O)c2cccc3nonc23)c(OC)c1 | -3.0 | -2.2 | -2.7 | -5.4 | 14.4 | 4.0 | i | 2.9
COc1ccc(-c2cc(C(=O)NCC(c3ccco3)N(C)C)c3ccccc3n2)cc1OC (stereo unspecified) | 0.1 | -3.7 | -7.2 | / | / | -0.3 | i | /
CC[C@]1(C(=O)OC)[C@H]2C(=O)N(C)C(=O)[C@H]2[C@H]2CN(C)C(=NCc3ccccc3)N21 | 1.8 | 2.9 | -17.3 | -15.6 | / | / | / | /
COC(=O)[C@]1(Cc2ccccc2)N[C@H](CN(C)S(=O)(=O)c2ccc(F)cc2)[C@@H]2C(=O)N(C)C(=O)[C@@H]21 | 0.5 | 3.0 | 1.0 | 18.7 | / | -1.3 | / | /
O=C(NN=C1C2CC3CC(C2)CC1C3)c1cccs1 | 3.6 | 5.6 | / | -13.8 | -5.7 | -1.8 | i | 6.4
CCNc1nc(N)nc(Oc2ccc(OCc3ccccc3)nn2)n1 | 6.9 | 4.5 | / | -9.3 | 1.8 | 1.3 | i | -7.8
COc1ccccc1-c1nnc(SCC(=O)Nc2ccc(Cl)cc2Cl)o1 | -2.5 | 1.1 | -83.4 | 0.5 | 2.2 | -8.8 | i | -3.1
CCCCCc1nc(N)c(C#N)c(-c2ccco2)c1CCCC | -10.1 | -9.8 | ? | -9.6 | -2.3 | 19.0 | i | -9.5
COC(=O)Cn1cnc2sc(C)c(S(=O)(=O)N3CCN(c4ccccc4OC)CC3)c2c1=O | -2.7 | 3.6 | -54.6 | -8.6 | -4.8 | -0.8 | i | -11.0
CCc1ccccc1NC(=O)CN(C)C(=O)COc1ccc(C)nc1[N+](=O)[O-] | 9.9 | 2.8 | -21.4 | 2.6 | 1.0 | -3.4 | i | 1.9
Cc1ccc(-c2csc(NC(=O)c3ccc(F)cc3)c2C(=O)O)cc1 | 2.2 | 1.9 | -6.9 | -0.5 | -4.9 | 18.9 | i | -17.0
COc1ccc(CCN(Cc2cc3cccc(C)c3[nH]c2=O)C(=O)N2CCCC2)cc1OC | -6.1 | -5.0 | -63.2 | -7.1 | -6.6 | 3.8 | i | 0.9
CCn1nc(C)c(CNC(=O)c2cc(COc3cncc(Cl)c3)on2)c1C | -2.3 | -12.0 | 22.8 | 7.5 | 1.8 | -2.7 | i | -0.5
COc1ccc(Cl)cc1C(=O)NNC(=O)CNC(=O)c1ccc(C)s1 | -1.9 | 1.9 | -5.0 | -8.1 | / | -20.0 | / | /
CCc1nnc(NC(=O)[C@@H](NC(=O)c2cccc(S(=O)(=O)N3CCOCC3)c2)C(C)C)s1 | 3.3 | 1.4 | / | / | -8.3 | / | i | -5.7
O=C1/C(=C/c2ccccn2)SC(=S)N1Cc1ccccc1 | 0.0 | -2.0 | -5.6 | -21.5 | -2.4 | 16.8 | i | -5.7
CCOC(=O)NCc1ccc2c(c1)cc(C)n2C | 32.6 | 73.3 | -101.1 | -5.6 | 5.1 | 4.7 | i | 20.5
COc1ccc(OC)c(NS(=O)(=O)c2cccs2)c1 | 1.8 | 1.4 | -25.3 | -1.4 | 1.6 | -2.5 | i | -4.1
Cc1cc(C)n(/N=C/c2cccc(O)c2)c(=O)c1C(N)=O | 2.4 | 2.4 | / | -17.1 | -3.7 | -4.3 | i | -11.3
CCOc1ccccc1NC(=O)C(NC(=O)C1CCC(C)CC1)C(C)C (stereo unspecified) | 5.1 | 3.7 | -12.3 | / | 19.8 | 0.7 | i | 4.9
CC(=O)Nc1cccc(OCCCNC(=O)c2ccc(C(C)(C)C)cc2)c1 | 4.6 | 2.4 | -9.0 | -5.0 | 9.5 | 14.1 | i | -3.1
C=C(C)CNC(=S)N/N=C(\C)c1ccc(Cl)s1 | -3.8 | -1.3 | 7.2 | -23.8 | -6.1 | -11.5 | i | 3.8
CCOc1ccc(-c2nnn(CC(=O)N3CCCC3)n2)cc1OCC | 1.3 | 4.7 | / | -6.3 | 34.8 | -8.1 | i | -4.9
N#Cc1ccccc1-c1ccccc1C(=O)N1CCCCC1 | 5.8 | 3.9 | -55.0 | -4.1 | 3.7 | -9.1 | i | -10.8
CN(c1ccc(C(=O)N2CCN(Cc3ccc4c(c3)OCO4)CC2)cc1)S(=O)(=O)c1ccccc1 | -6.9 | -21.7 | ? | -5.8 | 0.3 | -4.2 | i | -1.4
CCN1C(=O)c2cccc3c(S(=O)(=O)N(C(=O)c4cccnc4)c4ccc(OC)cc4)ccc1c23 | 3.2 | -4.7 | 5.3 | -4.9 | -12.3 | 4.0 | i | -4.7
C[C@@H]1CCC[C@]2(O[C@@H](CCO)C[C@@H](O)[C@@H]2O)O1 | -1.7 | 6.3 | -27.4 | -19.5 | / | / | i | /
CC(=O)Nc1ccc(NC(=O)COc2ccc(S(=O)(=O)NC(C)c3ccccc3)cc2)cc1 (stereo unspecified) | 2.5 | -8.8 | -2.3 | -14.1 | -7.3 | -22.7 | i | -3.9
CN(C)c1ccc(C(c2nnnn2C(C)(C)C)N2CCN(C(=O)c3ccco3)CC2)cc1 (stereo unspecified) | 6.6 | 3.5 | / | -14.4 | -1.2 | -0.5 | i | 3.4
Cc1ccc(-n2ncc(C(=O)NCC3CCN(C4CCCC4)C3)c2C2CCN(C(=O)OC(C)(C)C)CC2)cc1C (stereo unspecified) | -5.7 | -2.2 | -0.6 | 1.5 | -1.8 | -4.8 | i | -4.5
Cc1cc([N+](=O)[O-])ccc1N(C)C | 1.9 | 3.3 | / | -15.3 | 9.8 | -12.5 | i | -9.9
O=C(NCCc1ccccn1)c1nc(Cn2ccc([N+](=O)[O-])n2)no1 | 1.1 | 4.5 | -12.7 | -16.8 | -4.0 | -8.2 | / | -1.8
O=C(N/N=C/c1ccccc1)c1ccco1 | 3.8 | -0.2 | -17.9 | / | -5.5 | 9.7 | i | -4.7
O=[N+]([O-])c1ccccc1-c1ccc(CN2CCN(c3ccccc3)CC2)o1 | -1.2 | 2.4 | 14.3 | 6.8 | 22.0 | -0.6 | i | -12.8
CCn1nnnc1SCC(=O)Nc1cccc(NC(C)=O)c1 | 2.4 | 4.4 | -6.6 | -6.9 | -0.8 | -6.3 | i | -3.0
CC(C)(C)c1ccc2c(c1)OCC(C(=O)O)O2 (stereo unspecified) | -1.4 | 0.2 | -41.7 | -15.1 | 2.5 | 5.3 | i | -3.1
CC(C)c1ccc(Nc2nc(N3CCOCC3)nc(N3CCOCC3)n2)cc1 | -6.0 | -4.8 | -1.6 | -11.5 | / | / | / | /
More structures.
SMILES | MT1-MMP act inh | MT1-MMP act inh RFP | HIV Env fusion | Yeast UUG start | PABP FP inh | CSC inhib | Rce1 inh | eIF4H FP inh
CS(=O)(=O)c1ccc(Cl)c(NC(=O)COC(=O)CNC(=O)c2ccc(Br)o2)c1 | -0.4 | -1.9 | / | -10.5 | 2.7 | 11.3 | i | 5.5
O=C(NCc1cccnc1)c1cc(C2CCCCN2C(=O)OCCF)on1 (stereo unspecified) | -0.1 | 1.7 | -29.6 | -16.1 | / | / | / | /
CCOC(=O)C1=C(C)Nc2ncnn2C1c1ccccc1F (stereo unspecified) | 5.6 | 2.6 | / | -14.6 | 2.5 | -3.4 | / | 0.4
COc1ccc(C(=O)COc2ccc(C(C)=O)cc2OC)cc1OC | 2.4 | -1.1 | -6.8 | 14.2 | / | / | / | /
Nc1nonc1-n1nnc(C(=O)N/N=C/c2ccccc2F)c1CN1CCOCC1 | -0.7 | 4.7 | -5.4 | -15.7 | / | -16.8 | i | /
